Calb biofilm kill: mixture kills Candida albicans biofilm cells | C. albicans biofilm persisters + clotrimazole, fluorescence viability; primary screen in compound mixtures of four per well | inhibition, % at 7.6 µM | 0.02% of 120,000 active | AID 1242;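 active = inhibition above 30.3% in the primary screen of four-compound pools, then above 30% when the compound was retested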;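 also: compounds exposed to preformed 24 h biofilms for 48 h; the number belongs to the whole pool; some results filed as inactive read as strong as hits; inactives centre near 12; 0% = biofilm with clotrimazole alone and 100% = kill control; retested singly at about 60 µM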
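Incubation: 24 h biofilm formation, then 48 h compound exposure, 37 °C | Material: C. albicans biofilms | Buffer or medium: RPMI/MOPS medium, pH 7.0 | Measured by: 2-h Alamar Blue fluorescence, 535/590 nm excitation/emission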
* marks the source's active call; other numbers are inactive results. Not all compounds are listed; rates above refer to the full screens.

SMILES	Calb biofilm kill
COc1cc(/C=N\NC(=O)c2ccc(Cn3cc(Br)c([N+](=O)[O-])n3)o2)cc(OC)c1O	19.3
CC(=O)N=Cc1c(C)c(C#N)c(=O)n(C)c1O	5.3
O=C(Cn1cccn1)c1ccccc1	13.9
CCN(/N=C/c1ccc(Cl)cc1)c1cc(=O)n(C)c(=O)[nH]1	-1.9
Cc1ccc(Cn2c(SC3CCOC3=O)nc3ccccc3c2=O)cc1 (stereo unspecified)	17.4
COc1ccc(C(=O)OCC(=O)NCC2CCCO2)cc1 (stereo unspecified)	8.9
CN(C)c1ccc(/C=N/NC(=O)c2ccccc2O)o1	14.6
COC(=O)c1ccccc1NC(=O)N1CCN(c2ccccc2F)CC1	12.5
CCOC(=O)c1ccc(N=c2sc(C(=O)OC)cc(=O)n2CCCN2CCOCC2)cc1	12.4
COc1ccc(NC(=S)NCc2cccs2)c(OC)c1	11.6
COc1cc(C(=O)O)c([N+](=O)[O-])c(OC)c1OC	24.9
C/C=C/C(=O)OCC(=O)Nc1ccc(C)c(S(=O)(=O)N(C)C)c1	19.1
COc1ccc(CCNC(=O)Cn2cnc3c(nnn3Cc3ccc(C)cc3)c2=O)cc1OC	12.2
O=C(COC(=O)c1ccc([N+](=O)[O-])o1)c1ccccc1	3.7
NC(=O)NC(=O)COC(=O)c1ccc(Cl)c(S(=O)(=O)N(Cc2ccccc2)c2ccc(Cl)cc2)c1	9.5
O=C(COC(=O)c1ccc(Br)cc1)Nc1ccccc1Br	13.7
N#Cc1cnc(N)c(Br)c1	32.2
O=[N+]([O-])c1ccc(Nc2ccccn2)c([N+](=O)[O-])c1	24.7
CC(C)(C)/C(O)=C/c1nc2ccccc2[nH]c1=O	7.4
CCNC(=S)Nc1cc(C)ccn1	14.8

Structural class: the compounds so far with a nitro group on carbon.
SMILES	Calb biofilm kill
COc1cc(/C=N\NC(=O)c2ccc(Cn3cc(Br)c([N+](=O)[O-])n3)o2)cc(OC)c1O	19.3
COc1cc(C(=O)O)c([N+](=O)[O-])c(OC)c1OC	24.9
O=C(COC(=O)c1ccc([N+](=O)[O-])o1)c1ccccc1	3.7
O=[N+]([O-])c1ccc(Nc2ccccn2)c([N+](=O)[O-])c1	24.7

Next structures
SMILES	Calb biofilm kill
Nc1nc(SCC(=O)NCC2CCCO2)[nH]c(=O)c1NC(=O)c1ccco1 (stereo unspecified)	14.9
Cn1ccnc1SCC(=O)Nc1nc2ccccc2s1	-6.1
COc1ccc(-c2cc(CNS(=O)(=O)c3ccccc3)on2)cc1	4.7
CCOc1cc(C(=O)NCCCn2ccnc2)cc(OCC)c1OCC	1.3
O=C(CSc1nnc(-c2ccncc2)n1Cc1ccccc1)NC1CCCCC1	11.3
O=[N+]([O-])c1cccc(C2=NC(c3ccccc3)CO2)c1 (stereo unspecified)	18.2
COc1ccccc1N1C(=O)C2C(c3ccc(F)cc3)NN(C(=O)c3ccc(C)cc3)C2C1=O (stereo unspecified)	-2.9
COc1ccc(CNc2nc(NCc3ccc(OC)cc3)c3[nH]cnc3n2)cc1	15.7
COc1ccc(NC(=O)c2c(Cl)nc3ccccn23)cc1	14.5
Cc1ccc(Sc2cc(NCCCO)c([N+](=O)[O-])c3nonc23)cc1	18.3
O=C(Nc1ccc(Cl)cc1)c1cccc(N2C(=O)C3C4CCC(C4)C3C2=O)c1 (stereo unspecified)	7.4
O=C(N[C@@H](Cc1ccccc1)C(=O)O)c1ccncc1	17.0
c1ccc(CSc2nc3ncncc3[nH]2)cc1	10.1
O=C(C1=C[C@H](c2csc3ccccc23)C[C@H](OCCCCO)O1)N1CCN(Cc2ccccc2)CC1	18.3
Cc1cc(C)c(N(C(=O)CN2C(=O)c3ccccc3S2(=O)=O)C(C(=O)NCC2CCCO2)c2ccc(F)cc2)c(C)c1 (stereo unspecified)	15.6
C=CCn1c(-c2sc(-c3ccccc3)nc2C)n[nH]c1=S	1.2
CCOC(=O)CC(NC(=O)c1cccc2c1C(=O)N(Cc1cccnc1)C2)c1ccc(OCC)c(OC)c1 (stereo unspecified)	14.1
CC(C)(C)c1ccc2c(c1)OC(C(=O)N/N=C\c1ccc(-c3cccc(C(=O)O)c3)o1)CO2 (stereo unspecified)	30.7
Cc1c(C(=O)NCc2ccc3c(c2)OCO3)oc2ccccc12	-1.7
O=C1CC(N2CCc3ccccc32)C(=O)N1c1ccc(F)cc1 (stereo unspecified)	15.2
COc1ccc(/C=C/CN2CCN(Cc3ccc(F)cc3)C(CCO)C2)cc1 (stereo unspecified)	18.9
CC(C)CNC(=S)Nc1ccc(F)cc1	14.0
O=C(Nc1ccccc1)Nc1cc(S(=O)(=O)N2CCOCC2)ccc1N1CCCC1	8.3
Cc1ccn2cc(-c3ccc4c(c3)NC(=O)CO4)nc2c1	-3.8
COc1ccc(-c2cc(-c3ccco3)[nH]c(=O)c2C#N)cc1	19.3
Cc1ccc(C(=O)NC(=S)NCc2ccco2)cc1	4.6
Cc1ccc(C2CC(=O)C=C(NCc3ccccc3)C2)cc1 (stereo unspecified)	17.0
Cc1cc(OCCN2CCCC2)cc(C(C)C)c1	11.0
COc1ccc(C2C(C(=O)c3cccs3)=C(O)C(=O)N2c2cccc(C)n2)cc1 (stereo unspecified)	20.6
COc1ccc(Nc2cc(C(=O)NCc3ccccn3)c3ccccc3n2)c(OC)c1	13.4
CCCCOC(=O)CSc1nc2ccccc2o1	10.6
CC1CCCN(c2nc3c(c(=O)[nH]c(=O)n3C)n2CCSc2ncccn2)C1 (stereo unspecified)	15.1
CCOC(=O)C/C(C)=N/NC(=O)COc1ccccc1C	23.9
Cc1c[nH]c(=O)c([N+](=O)[O-])c1	26.9
Cc1onc(-c2ccccc2)c1C(=O)N/N=C/C(Br)=C/c1ccccc1	8.2
COc1ccc(-c2nc(NC(=O)c3[nH]c(C)c(C(C)=O)c3C)sc2C)cc1	5.4
OC(COc1cccc2ccccc12)CN1CCN(c2ccc(Cl)cc2)CC1 (stereo unspecified)	-0.6
N#C/C(=C\c1ccc(N2CCCCC2)c([N+](=O)[O-])c1)c1nn(-c2ccccc2)c(N)c1C#N	13.0
CCCC1=C(C(=O)OCC)C(c2ccc(OC)c(CSc3ccccn3)c2)C(C#N)=C(N)O1 (stereo unspecified)	-1.8
O=C(NCC1CCN(Cc2ccccc2Cl)CC1)Nc1cccc(Cl)c1	9.2
CC(SCc1ccccc1)C(=O)N/N=C/c1ccc(OCC(=O)NCc2ccco2)cc1 (stereo unspecified)	16.4
COCCNC(=O)/C(C#N)=C/c1ccc(-c2ccc(S(=O)(=O)N3CCOCC3)cc2)o1	3.5
Cc1ccc(S(=O)(=O)CCSc2cccc(C(=O)Nc3ccccc3C(=O)O)c2)cc1	19.1
S=C(c1c[nH]c2ccc(Br)cc12)N1CCOCC1	11.5
COc1ccc(NC(=O)C2CCN(S(=O)(=O)c3ccc(OC)c(OC)c3)CC2)c(OC)c1	14.2
CC1(C)Cc2c(c(-c3ccco3)nc3sc4c(NCCCO)ncnc4c23)CO1	8.9
Cc1c(NC(=O)CN2C(=O)NC3(CCC(C)CC3)C2=O)c(=O)n(-c2ccccc2)n1C (stereo unspecified)	12.8
CN(C)S(=O)(=O)c1ccc(Cl)c(NC(=O)COC(=O)C2CSC3(C)CCC(=O)N23)c1 (stereo unspecified)	14.0
CC(O)[C@H]1CNC(=O)C(=O)N1CC(C)(C)C (stereo partly specified)	18.7
CCOC(=O)c1ccc(-n2c(CN3CCN(CC)CC3)nc3ccc([N+](=O)[O-])cc3c2=O)cc1	17.2
S=C1NCN(Cc2cccnc2)CN1c1cccc(Cl)c1	9.4
O=C(Nc1ccc2ccccc2n1)Nc1cccs1	29.6
Cc1cc2c(cc1C)NC(=O)CC(C(F)(F)C(F)(F)C(F)(F)F)=N2	7.3
C[C@H](Nc1ccc(C(F)(F)F)cc1[N+](=O)[O-])C(=O)O	22.3
O=C(Nc1ccccc1-c1ccccc1)C1CCCC1	5.0
COc1ccc(Br)cc1/C=N/NC(=O)Cn1nnnc1N	12.1
O=C(NNc1ccc(F)cc1)c1c(F)cccc1Cl	14.3
O=C(Nc1ccc2ccccc2c1)c1cccc(F)c1	17.8
CCN(CC)C(=O)c1cc2c(=O)c3cc(Cl)ccc3oc2nc1C	-8.4
CCOC(=O)c1ccc(NC(=O)c2n[nH]c(=O)c3ccccc23)cc1	11.0
(list continues)
SMILES	Calb biofilm kill
CC1CN(Cc2nc3c(c(=O)[nH]c(=O)n3C)n2CCCc2ccccc2)CC(C)O1 (stereo unspecified)	17.1
Cc1ccc(C)c(Nc2ncccc2C(=O)NCc2cccs2)c1	13.6
CSc1oc(-c2cccs2)nc1S(=O)(=O)c1ccccc1	19.2
Cc1ccc(OCC(=O)N/N=C\c2ccc(O)c([N+](=O)[O-])c2)c([N+](=O)[O-])c1	10.0
CCCOc1ccc(/C=N/NC(=O)C(C)Sc2ccccn2)cc1OCC (stereo unspecified)	13.2
COc1ccccc1N1CCN(C(C)C(=O)N2CC(C)OC(C)C2)CC1 (stereo unspecified)	6.2
COc1cc(-c2[nH]ncc2CN2CCCC2c2nonc2C)cc(OC)c1OC (stereo unspecified)	24.9
N/C(CN1CCCCC1)=N\S(=O)(=O)c1cc(Cl)cc(Cl)c1	9.7
CC(C)(C)c1ccc(C(=O)Nc2cccc3c(=O)[nH][nH]c(=O)c23)cc1	11.7
S=C1NC[C@H](Cc2cccc3ccccc23)N1CC1CCCCC1	18.7
Nc1ccc(N=Nc2ccccc2)c2ccccc12	17.6
C(=N/N1CCN(c2ccccc2)CC1)/c1ccncc1	11.5
N#C/C(=C\c1ccco1)C(=O)Nc1ccc(S(N)(=O)=O)cc1	5.5
COc1ccc(/C=N/NC(=O)C2C3CCCCC32C)cc1OC (stereo unspecified)	14.5
Cc1ccc(NC(=O)N2CCN(C)CC2)cc1NC(=O)N1CCN(C)CC1	21.0
O=C(COc1ccccc1Cl)NCCC1=CCCCC1	8.9
CC1CCc2c(sc3ncn(CC(=O)N4CCCCC4)c(=O)c23)C1 (stereo unspecified)	-10.1
COC(=O)c1ccc(C(=O)OC)c(NC(=S)N2CCC(C)CC2)c1	10.1
Cc1c(CCOC(=O)C23CC4CC(CC(C)(C4)C2)C3)sc[n+]1CC(=O)c1ccccc1	23.4
CCCCOC(=O)c1nnc(-c2ccc(Cl)cc2)o1	23.4

An excerpt from above in order of formula weight, lowest first:
SMILES	Calb biofilm kill
N#C/C(=C\c1ccco1)C(=O)Nc1ccc(S(N)(=O)=O)cc1	5.5
Cc1ccc(NC(=O)N2CCN(C)CC2)cc1NC(=O)N1CCN(C)CC1	21.0
CCCOc1ccc(/C=N/NC(=O)C(C)Sc2ccccn2)cc1OCC (stereo unspecified)	13.2

Following part.
SMILES	Calb biofilm kill
CCOC(=O)c1c(NC(=O)C2COc3ccccc3O2)sc2c1CC(C)(C)NC2(C)C (stereo unspecified)	-4.0
Cc1nn(CC(=O)O)c(C)c1N	15.7
CC(NC(=O)COC(=O)CSCc1ccccc1)c1ccccc1 (stereo unspecified)	-2.6
CC1CCN(CCOc2cccc(Br)c2)CC1	6.6
CN(NC(=O)c1ccc(Cl)cc1)c1ncc(C(F)(F)F)cc1Cl	15.0
COc1ccc(NC(=O)c2cc(C)on2)cc1	9.1
CCS(=O)(=O)N1CCC(C(=O)c2ccc(Cl)cc2)CC1	19.9
Cc1ccc(C(=O)Nc2nnc(-c3ccco3)o2)cc1C	1.4
COC(=O)c1cnc(SCc2ccc(Cl)cc2)n1C	-3.7
CCC1CCCCN1CCCNC(=O)CCCNC(=O)Cn1cnc2sc3c(c2c1=O)CCCC3 (stereo unspecified)	13.9
Cc1[nH]n(-c2ccccc2)c(=O)c1C=NCC1CCCO1 (stereo unspecified)	4.8
Cc1c(NC2(C#N)CCCC2)c(=O)n(-c2ccccc2)n1C	9.0
CCC(C(=O)NN1C(=O)c2ccccc2C1=O)c1ccccc1 (stereo unspecified)	-0.5
COc1ccc(N=C2C(=O)N3c4c(cccc42)C(C)=CC3(C)C)cc1	8.4
C=C(C)CNC(=S)NNC(=O)CCn1c2ccc(Cl)cc2c2cc(Cl)ccc21	4.5
COc1cccc(Nc2ccc(-n3ccnc3)nn2)c1	1.1
Cc1ccc(CCNC(=O)C2CC(c3cc(C(F)(F)F)cc(C(F)(F)F)c3)=NO2)cc1 (stereo unspecified)	12.6
COc1ccc2cc(C(=O)C3CCCN(Cc4cnc(N5CCOCC5)s4)C3)ccc2c1 (stereo unspecified)	27.2
CCN(CC)c1ccc(/C=C(/C#N)C(=O)NC(C)C)o1	12.6
CC(NC(c1ccccc1)c1ccccc1)C(=O)N1CCCc2ccccc21 (stereo unspecified)	4.7
Cc1cc(C)n2nc(SC(C)C(=O)Nc3ccc(Cl)cn3)nc2n1 (stereo unspecified)	10.6
Cc1cccc2cc(CN(Cc3cccs3)S(=O)(=O)c3ccc4c(c3)OCCO4)c(=O)[nH]c12	8.9
O=C(/C=C/c1ccc2c(c1)OCO2)c1ccco1	19.7
Nc1nc(CN2CCN(c3ccccc3F)CC2)nc(N2CCCc3ccccc32)n1	13.5
Cc1cccc(N2C(=O)C(Oc3ccc(Cl)cc3Cl)C2C=O)c1C (stereo unspecified)	10.7
Cc1cc(C(=O)NC(C)Cc2ccccc2)cc(C)c1[N+](=O)[O-] (stereo unspecified)	12.5

Copied from the list.
For Calb biofilm kill, Nc1nc(CN2CCN(c3ccccc3F)CC2)nc(N2CCCc3ccccc32)n1 has 13.5
For Calb biofilm kill, CCOC(=O)C/C(C)=N/NC(=O)COc1ccccc1C has 23.9
For Calb biofilm kill, CCCC1=C(C(=O)OCC)C(c2ccc(OC)c(CSc3ccccn3)c2)C(C#N)=C(N)O1 (stereo unspecified) has -1.8
For Calb biofilm kill, O=C(C1=C[C@H](c2csc3ccccc23)C[C@H](OCCCCO)O1)N1CCN(Cc2ccccc2)CC1 has 18.3
For Calb biofilm kill, CC1CCN(CCOc2cccc(Br)c2)CC1 has 6.6
For Calb biofilm kill, O=C(Nc1ccccc1-c1ccccc1)C1CCCC1 has 5.0

Retrieved by compound from the entries so far (2):
SMILES	Calb biofilm kill
CC(C)CNC(=S)Nc1ccc(F)cc1	14.0
O=C(COC(=O)c1ccc(Br)cc1)Nc1ccccc1Br	13.7
